KCNQ2 enhance = potentiators of rat KCNQ2 potassium channel. hit rate 0.54% among 310,000. CHO-K1 KCNQ2, FluxOR thallium flux fluorescence; hits give high values. B-score at 10 µM. AID 2239;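 active means fluorescence ratio B-score at least 3 SD of library B-scores, with initial fluorescence B-score within 3 SD, cut at about 5.3 in these data; same plate scores as AID 2156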;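 further: B-score of peak minus minimum over baseline fluorescence ratio after K+ and Tl+ stimulus; positive B-score means potentiation of KCNQ2 with more thallium influx and brighter signal; only the inactives scoring about 0 or higher are listed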
Target sequence (O88943 whole entry, looked up): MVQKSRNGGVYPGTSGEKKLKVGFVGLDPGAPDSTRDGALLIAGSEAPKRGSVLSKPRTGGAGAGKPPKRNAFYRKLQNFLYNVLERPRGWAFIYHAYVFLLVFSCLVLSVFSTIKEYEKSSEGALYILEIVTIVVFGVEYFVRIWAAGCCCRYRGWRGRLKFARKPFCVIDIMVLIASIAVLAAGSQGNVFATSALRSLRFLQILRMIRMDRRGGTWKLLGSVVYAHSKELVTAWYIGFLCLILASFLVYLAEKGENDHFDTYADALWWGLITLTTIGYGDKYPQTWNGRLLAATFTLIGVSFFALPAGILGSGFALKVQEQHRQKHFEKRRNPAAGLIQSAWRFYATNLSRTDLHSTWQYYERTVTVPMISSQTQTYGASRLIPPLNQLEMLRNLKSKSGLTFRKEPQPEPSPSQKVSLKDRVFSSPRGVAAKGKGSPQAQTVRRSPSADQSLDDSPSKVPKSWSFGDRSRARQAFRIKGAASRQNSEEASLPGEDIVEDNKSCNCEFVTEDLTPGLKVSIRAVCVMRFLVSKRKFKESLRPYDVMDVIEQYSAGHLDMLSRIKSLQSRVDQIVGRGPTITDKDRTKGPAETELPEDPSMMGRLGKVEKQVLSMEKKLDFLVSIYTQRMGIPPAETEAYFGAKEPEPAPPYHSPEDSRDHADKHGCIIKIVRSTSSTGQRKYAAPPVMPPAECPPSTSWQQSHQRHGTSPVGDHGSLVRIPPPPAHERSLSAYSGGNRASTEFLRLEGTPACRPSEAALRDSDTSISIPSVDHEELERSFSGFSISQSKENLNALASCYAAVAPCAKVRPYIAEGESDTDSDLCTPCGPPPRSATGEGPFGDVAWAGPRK
KCNQ2 enhance baseline = recorded beside KCNQ2 enhance, whose call it bears; B-score; compound at 10 µM; measured here: initial fluorescence intensity artifact check;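 brightness before thallium and not channel activity; 0 = typical well and far values either way flag optical interference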
Numbers without * were called inactive.

nr	mol	KCNQ2 enhance	KCNQ2 enhance baseline
1	Cc1cccc(N2C(=O)CSC23CCCCC3)c1	0.43	-0.11
2	COc1ccc(C(=O)CSc2nnc(-c3cccnc3)n2Cc2ccco2)cc1	0.09	-2.4
3	COc1ccc(OC)c(NC(=O)C(CC(=O)O)Cc2ccc(Cl)cc2)c1 (stereo unspecified)	0.2	3.2
4	CSc1ccccc1OCc1cc(C(=O)NCc2cnc(C)cn2)no1	0.57	1.4
5	O=C(CN1C(=O)NC(Cc2c[nH]c3ccccc23)C1=O)NCC(F)(F)F (stereo unspecified)	1	0.04
6	COC(=O)c1c(C)[nH]c(C(=O)NCc2ccco2)c1C	0.18	-0.51
7	COc1ccc(C(=O)c2oc3nc(C)cc(C)c3c2N)cc1	0.68	0
8	CCCCc1c(C)c(C#N)c2nc3ccccc3n2c1NCCN(C)C	0.08	-0.05
9	CCc1cccc(NC(=O)C2CCCN2S(=O)(=O)c2ccc3c(c2)n(C)c(=O)c(=O)n3C)c1 (stereo unspecified)	0.64	-0.86
10	COCc1cc(C)nc2oc(C(=O)c3ccccc3)c(N)c12	1.8	-0.3
11	O=C(CNC(=O)N1CC(=O)Nc2ccccc21)Nc1cccc(F)c1	0.86	-1.3
12	CCCCNc1nc(-c2ccccc2)nc(-n2ccnc2)n1	0.86	-1.2
13	Cc1ccc(NS(=O)(=O)c2ccc(C(=O)NCC(c3ccco3)N3CCCCC3)cc2)cc1 (stereo unspecified)	0.72	0.77
14	Cc1ccc(S(=O)(=O)NC2CCOC(C)(C)C2)cc1 (stereo unspecified)	2.2	-0.57
15	Cc1ccc(OCc2n[nH]c(=S)n2-c2ccc(Cl)cc2)cc1	0.03	0.38
16	O=C(O)COc1ccc(/C=C/C(=O)c2ccc3ccccc3c2)cc1	0.38	1.6
17	COc1cc(/C=C/C(=O)OCC(=O)NCc2cccs2)ccc1OCC#N	1	1.6
18	Cc1nn(C)c(C)c1CNC(=O)c1cnn2c1NC(c1ccccc1)CC2C(F)(F)F (stereo unspecified)	1.1	0.03
19	O=C(Cc1ccccc1)NN1C(=O)C2C3C=CC([C@@H]2C1=O)C31CC1 (stereo partly specified)	0.04	0.96
20	Cc1cc(C(F)(F)F)nc(-n2cc(-c3ccccc3)nn2)n1	1.1	-1.1
21	CS(=O)(=O)N(CC(=O)N1CCCCCC1)c1ccc(Br)cc1	0.84	-0.11
22	COc1ccc(COc2ccc(S(=O)(=O)N3CCCC3)cc2C(N)=O)cc1F	0.25	-0.79
23	CCOc1ccccc1NC(C)C(=O)Nc1cc(C(F)(F)F)ccc1N1CCOCC1 (stereo unspecified)	0.53	-0.55
24	Cc1nnc(N/N=C/c2ccccn2)[nH]c1=O	0.57	-0.84
25	Cc1ccc2oc(-c3cccc(NC(=O)Cn4cnc5c(=O)n(C)c(=O)n(C)c54)c3)nc2c1	0.03	0.9
26	O=C(OCC(=O)N1CCc2ccccc21)c1ccc[n+]([O-])c1	1.1	0.75
27	O=C(Cc1ccccc1)NCc1cccnc1	0.34	-0.32
28	COC(=O)c1ccc(COc2ccc(C)cc2[N+](=O)[O-])o1	0.98	0.08
29	O=C(Cc1ccccc1)Nc1cccnc1	0.96	-2.3
30	CC(N)=Nc1ccc([N+](=O)[O-])cc1	0.3	-0.89
31	COc1ccc(C(=O)C2CCCN(Cc3ccc(C#CCCO)cc3)C2)cc1F (stereo unspecified)	0.27	0.62
32	C/C(=N\NC(=O)C1(C)CC1(Br)Br)c1ccc([N+](=O)[O-])cc1 (stereo unspecified)	2.3	1.3
33	CCCC(=O)OCC(=O)Nc1ccc([N+](=O)[O-])cc1C#N	0.24	-0.13
34	O=C(NNC(=S)Nc1ccccc1)C1CCCCC1	0.01	-1.3
35	COc1ccc(OC)c(/C=C2\SC(N3CCCC(C)C3)=NC2=O)c1 (stereo unspecified)	0.44	-1.4
36	Cc1cc(Nc2c(C)n(C)n(-c3ccccc3)c2=O)c2ccccc2n1	0.7	-0.68
37	COc1ccc(-c2nc3c(-c4ccc(Cl)cc4)cnn3cc2C)cc1F	0.18	0.5
38	CNC(=O)CN(c1cc([N+](=O)[O-])ccc1OC)S(C)(=O)=O	0.04	1.6
39	Cc1cc(NC(=O)CCC(=O)N(CC(=O)NCC2CCCO2)Cc2ccc(F)cc2)no1 (stereo unspecified)	0.22	0.33
40	C[C@@H]1CCC2[C@](C)(CO)[C@@H](O)CC[C@]2(C)[C@@]12C[C@](CO)(CC(=O)O)CO2 (stereo partly specified)	0.24	0.76
41	CCc1cc(=O)oc2cc(C)cc(OC(C)C(=O)NCCCN3CCOCC3)c12 (stereo unspecified)	0.01	0.06
42	Cc1ccc(C(=O)Nn2cnnc2)cc1Cl	0.7	-1.6
43	CCc1nnc(NC(=O)CSc2ccc(-c3nc4ccccc4[nH]3)cn2)s1	2.6	1.2
44	NS(=O)(=O)c1ccc(CCNC(=O)c2ccc(S(=O)(=O)N3CCCCC3)cc2)cc1	1.4	-0.93
45	COc1ccc(CCNCc2c(OC)ccc3ccccc23)cc1OC	0.43	0.31
46	O=C(CCCOc1ccccc1)NC(=S)Nc1ccccc1	0.33	1.5
47	COc1ccc(NC(=O)c2ccco2)cc1NC(=O)c1ccco1	0.19	0.44
48	CC(C)C(OC(=O)c1ccco1)C(=O)NC1CCCC1 (stereo unspecified)	1.5	0.34
49	CC/C(=N/Nc1ccc(Cl)cc1)c1cnnc(SC)n1	0.02	1.1
50	N#Cc1c(/N=C/c2cccnc2)sc2c1CCCC2	0.23	-0.45

Entries from the list above that contain fluorine (nine):
nr	mol	KCNQ2 enhance	KCNQ2 enhance baseline
5	O=C(CN1C(=O)NC(Cc2c[nH]c3ccccc23)C1=O)NCC(F)(F)F (stereo unspecified)	1	0.04
11	O=C(CNC(=O)N1CC(=O)Nc2ccccc21)Nc1cccc(F)c1	0.86	-1.3
18	Cc1nn(C)c(C)c1CNC(=O)c1cnn2c1NC(c1ccccc1)CC2C(F)(F)F (stereo unspecified)	1.1	0.03
20	Cc1cc(C(F)(F)F)nc(-n2cc(-c3ccccc3)nn2)n1	1.1	-1.1
22	COc1ccc(COc2ccc(S(=O)(=O)N3CCCC3)cc2C(N)=O)cc1F	0.25	-0.79
23	CCOc1ccccc1NC(C)C(=O)Nc1cc(C(F)(F)F)ccc1N1CCOCC1 (stereo unspecified)	0.53	-0.55
31	COc1ccc(C(=O)C2CCCN(Cc3ccc(C#CCCO)cc3)C2)cc1F (stereo unspecified)	0.27	0.62
37	COc1ccc(-c2nc3c(-c4ccc(Cl)cc4)cnn3cc2C)cc1F	0.18	0.5
39	Cc1cc(NC(=O)CCC(=O)N(CC(=O)NCC2CCCO2)Cc2ccc(F)cc2)no1 (stereo unspecified)	0.22	0.33

Next section:
nr	mol	KCNQ2 enhance	KCNQ2 enhance baseline
51	Fc1ccccc1N1CCN(CCCc2ccccc2)CC1	0.11	1.3
52	COc1ccc(CNC(=S)N/N=C/c2ccncc2)cc1	1.2	-1.9
53	COc1ccc(-c2[nH]ncc2/C=N\NS(=O)(=O)c2ccccc2)cc1OC	1.4	-0.98
54	COc1ccc(OC)c(C(=O)COC(=O)CNC(=O)C2CCCCC2)c1	0.72	-0.06
55	CC(C)(C)S(=O)(=O)c1cnc2c(-c3ccc(F)cc3)cnn2c1N	0.08	1.1
56	Cc1ccc(OCC(=O)Nn2cnnc2)c(Br)c1	0.16	-0.26
57	CCOC(=O)C1CCCN(C(=O)c2sc3nc(C)nc(N4CCOCC4)c3c2C)C1 (stereo unspecified)	0.07	1.8
58	COc1ccc(-n2c3c(cc(C(=O)N4CCN(CCO)CC4)c2=O)C(=O)CC(C)(C)C3)cc1	1	0.01
59	OC(Cn1cnnc1)c1ccccc1 (stereo unspecified)	0.16	0.49
60	O=C(C(=O)N1CCCc2ccccc21)c1c[nH]c2ccccc12	0.43	-0.06
61	COC1CCCCC1Nc1cccc(SC)c1 (stereo unspecified)	0.81	0.17
62	CCOC(=O)Cc1csc(NC(NC(=O)CC)(C(F)(F)F)C(F)(F)F)n1	0.14	-1.1
63	COc1ccc(C2CC(c3ccc(Br)cc3)=NN2C(=O)CCC(=O)O)cc1OC (stereo unspecified)	0.01	-0.74
64	COc1ccc(-c2noc(CN3CCCCC3)n2)cc1OC	0.63	-0.09
65	COc1ccc2cc3cc(C(=O)NCCc4ccc(OC)c(OC)c4)oc3nc2c1	0.8	-0.47
66	CCN1CCN(C(=O)C2CC(=O)N(c3ccc(Cl)cc3)C2)CC1 (stereo unspecified)	0.85	1
67	O=C(CS(=O)(=O)c1cccc(C(F)(F)F)c1)Nc1ccccc1Cl	1	0.56
68	O=C(Nc1ccc(-c2nc3ncccc3o2)cc1)c1ccco1	1.4	-0.53
69	CCOc1ccc(CN(CCO)CCO)cc1[N+](=O)[O-]	0.38	-0.07
70	CCCCCCC(=O)N/N=C/c1ccco1	10*	0.57*
71	CCOc1ccc2nc(NC(=O)CN3C(=O)C4CCCCC4C3=O)sc2c1 (stereo unspecified)	0.06	0.07
72	CC(C)C[C@H](NC(=O)c1[nH]cnc1C(=O)N[C@@H](Cc1ccccc1)C(=O)OC(C)(C)C)C(=O)OCc1ccccc1	0.21	-0.16
73	CC(=O)Nc1ccc(-c2csc(Nc3ncccn3)n2)cc1	1	0.3
74	Cc1ccc(NC(=O)CCC(=O)NNC(=O)CCc2ccccc2)c(C)c1	0.88	1.4
75	COc1ccc(NC(=O)CCC(=O)c2cccs2)cc1S(=O)(=O)Nc1ccccc1Cl	1.7	0.13
76	Cc1ccccc1S(=O)Cc1ccc(C(=O)NCCCN2CCCCC2)o1 (stereo unspecified)	0.34	0.91
77	COc1ccc(N(CC(=O)NCC2CCCO2)C(=O)CCC(=O)Nc2nccs2)cc1 (stereo unspecified)	1.7	-1
78	COc1ccc(CCNc2ccc(C(CC(N)=O)NC(=O)Cc3ccc(Br)cc3)cc2[N+](=O)[O-])cc1 (stereo unspecified)	1.5	1.4
79	COC(=O)/C(C#N)=C/c1c(Oc2cc(C)cc(C)c2)nc2ccccn2c1=O	0.02	-0.3
80	CCOC(=O)NC1(C(F)(F)F)C(=O)N(Cc2ccccn2)C2=C1C(=O)CC(C)(C)C2 (stereo unspecified)	0.73	-1.8
81	O=C(c1cccs1)N1CCC(c2nc3c(nnn3Cc3ccccc3)c(=O)[nH]2)CC1	1.2	-0.94
82	O=C(Cn1cc(C(F)(F)F)cc(Cl)c1=O)NCc1ccc(Cl)cc1	2.1	-0.9
83	CN(C)CCCN(Cc1ccccc1)C(=S)Nc1ccc(OC(F)F)cc1	0.91	0.1
84	CC(C)NC(=O)C(=O)Nc1ccc2c(c1)N(S(=O)(=O)c1cccs1)CCC2	0.4	-0.24
85	COc1ccc(OC)c(C(C)NC(=O)C23CC4CC(CC(C4)C2)C3)c1 (stereo unspecified)	4.8	-1.1
86	CC(=O)Nc1ccc(/C=N\NC(=O)CNS(=O)(=O)c2ccc([N+](=O)[O-])cc2)cc1	2.3	-1.9
87	Cn1cccc1/C=N/n1c(-c2ccc(C(C)(C)C)cc2)n[nH]c1=S	1.5	-1.4
88	O=S(=O)(c1ccc(F)cc1)N1CCCN(c2nccc(C(F)(F)F)n2)CC1	0.65	1.8
89	O=C1[C@H]2[C@@H](C(=O)N1c1cc(Cl)cc(Cl)c1)[C@]1(C(=O)Nc3ccccc31)N1CCC[C@@H]21	0.1	-0.43
90	COc1cc(C(=O)c2cocc2C(=O)c2ccc3c(c2)OCO3)cc(OC)c1OC	0.38	1.9
91	CCOC(=O)NN1C(=O)c2ccccc2NC1c1ccc(N(C)C)cc1 (stereo unspecified)	0.47	-0.01
92	O=C(CSc1ccc2ccccc2n1)N/N=C/c1ccccc1O	1.9	-0.19
93	COc1ccc(OC)c(-c2cc(C(=O)NCc3cccs3)no2)c1	1.4	0.01
94	O=C(C1CCN(c2nnc(-n3cccc3)s2)CC1)N1CCN(c2cccc(C(F)(F)F)c2)CC1	0.33	-0.45
95	CCOC(=O)c1nn(-c2ccccc2C)c2nc(-c3ccc(C)cc3)c(C#N)c(=O)n12	0.53	-0.47
96	Cn1cccc1CNC(=S)Nc1cc(F)cc(F)c1	0.95	0.4
97	CCOc1ccccc1NC(=O)Cn1nnc(C(=O)NCc2cccs2)c1N	1.3	-1.2
98	Cc1cc(=O)nc2c3ccccc3n(CC(=O)NCCCN3CCOCC3)n12	0.03	1.8
99	N#Cc1ccccc1NC(=O)CC1CCCCC1	0.61	-2.2
100	Cc1ccccc1Nc1nc(N)nc(COC(=O)c2cccc(S(=O)(=O)NCc3ccccc3)c2)n1	1.8	-2.3

Additional structures:
nr	mol	KCNQ2 enhance	KCNQ2 enhance baseline
101	COC(=O)c1ccc(NC(=O)C2CCN(S(C)(=O)=O)CC2)cc1	0.61	0.32
102	Cc1cc(OC(C)C(=O)NCC(O)c2ccccc2)c2c(C)c(C)c(=O)oc2c1 (stereo unspecified)	0.83	-1.1
103	COc1ccccc1CN(Cc1cc2cc(C)ccc2[nH]c1=O)Cc1nnnn1CC1CCCO1 (stereo unspecified)	0.98	-0.01
104	Cn1c2c(c(=O)n1-c1ccccc1)CSCC2	1.9	-0.04
105	CCN(C(=O)CSc1nnc(Cn2nnc3ccccc32)o1)c1nc(C)cs1	0.02	-2.1
106	CCC1COCCS(=O)(=O)N1Cc1cccc(C(F)(F)F)c1 (stereo unspecified)	0.19	-1.2
107	O=C(CCc1ccccc1)NCc1ccc2c(c1)OCO2	4.9	-0.68
108	C[C@@H](NC(=O)OC(C)(C)C)c1nnc(S(=O)(=O)Cc2ccccc2)o1	9.1*	-0.69*
109	Cc1nn(C)c(C)c1CCC(=O)NC1CC(C)(C)Cc2c1cnn2-c1ccccc1 (stereo unspecified)	0.67	-0.25
110	Cc1ccc([N+](=O)[O-])cc1S(=O)(=O)n1ccnc1C	0.09	-0.04
111	CCCCNCc1cc(OC)c(OCC(N)=O)cc1Br	2.3	2.8
112	O=C(O)CSCC(=O)N1CCCN(c2nccc(C(F)(F)F)n2)CC1	0.02	2.2

Screening results deposited in PubChem BioAssay by Johns Hopkins Ion Channel Center.

This is a subset (hit frequency here may not be typical).
